rRNA inh HTS = inhibits bacterial ribosomal RNA function over humanized ribosomes. E. coli WT GFP vs humanized-ribosome RFP mutants, fluorescence, 24 h; hits give low values; DMSO median 0, no signal -100. GFP signal change (wild-type ribosome), % (concentration not given with the values). 1.6% of 350,000 active;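 active means significant combined selectivity score with lowered wild-type GFP, culture density cut under 30%, mutant RFP and density less affected; inactive means any of these conditions unmet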; further: one replicate is shown; some compounds called inactive have numbers as strong as hits
FGF22 binding = FGF22 (human) thermal shift binding; calls only at 9.99 µM; AID 651658; 1.5% of 340,000 active; recombinant FGF22 thermal shift, SYPRO orange fluorescence; percent of sucrose octasulfate shift, DMSO zero; Q9HCT0;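 active means melting point raised past a set limit in the mean and every replicate; three in four hits are not shown here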
ALR inh = inhibitors of human sulfhydryl oxidase ALR. P55789. purified ALR, DTT oxidation, H2O2 HRP-luminol luminescence. inhibition, % (concentration not given with the values). 3.8% of 290,000 active. AID 485317;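 active means mean and each replicate at 75% or more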;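 further: stock transfer was 7.5 nL into about 7.5 µL; 0% = neutral wells and 100% = wells with inactivated enzyme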
Target sequence (P55789 whole entry, looked up): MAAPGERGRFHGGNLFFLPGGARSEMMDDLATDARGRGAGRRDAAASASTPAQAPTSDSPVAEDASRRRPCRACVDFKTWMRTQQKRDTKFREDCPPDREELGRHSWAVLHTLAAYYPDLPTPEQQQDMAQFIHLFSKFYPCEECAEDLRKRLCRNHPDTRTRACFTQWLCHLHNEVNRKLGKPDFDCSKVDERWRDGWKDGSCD
B2AR ag = human beta-2 adrenergic receptor agonism by FAP | AID 504454 | P07550 | Am2.2-beta2AR cells, FAP receptor internalization, flow cytometry; reference of the scale not given here | response, % (concentration not given with the values) | 0.43% of 340,000 active;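 active means response above a set limit, near 3 SD of response in nonfluorescent compounds, cut at about 42% in these data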;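 further: stock transfer was 100 nL into about 11 µL; a reference agonist was the positive control; negative values mostly stem from fluorescent compounds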
HNF4A DNA FP = change in binding of human HNF4 alpha to DNA; P41235; HNF4a-FITC DNA binding, fluorescence polarization, 1 h; activity change, % at 10 µM; 0.3% of 360,000 active; in the data active means activity change above about 30%, passing the limit was not always enough;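 further: controls were the assay level and a saturating level of protein; the project sought stronger binding though the title names inhibitors; some compounds called inactive have numbers as strong as hits; positive values seem to mean higher polarization but the record does not say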
Target sequence (P41235 whole entry, looked up): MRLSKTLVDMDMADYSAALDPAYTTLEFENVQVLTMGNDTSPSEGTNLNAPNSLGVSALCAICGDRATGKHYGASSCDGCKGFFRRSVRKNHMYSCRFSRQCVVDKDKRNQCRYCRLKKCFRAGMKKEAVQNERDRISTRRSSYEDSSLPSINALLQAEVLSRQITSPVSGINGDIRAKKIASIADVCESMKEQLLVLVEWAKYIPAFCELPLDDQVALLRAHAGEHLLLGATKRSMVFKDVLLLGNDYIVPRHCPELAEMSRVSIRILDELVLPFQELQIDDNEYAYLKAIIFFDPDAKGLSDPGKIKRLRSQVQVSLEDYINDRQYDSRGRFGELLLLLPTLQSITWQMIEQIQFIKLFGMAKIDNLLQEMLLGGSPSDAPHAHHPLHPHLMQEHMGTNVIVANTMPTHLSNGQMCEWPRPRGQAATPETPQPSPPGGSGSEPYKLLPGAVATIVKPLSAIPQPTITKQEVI
UCH37 DUB inh = inhibitors of human deubiquitinating enzyme UCH37. Q9Y5K5. purified proteasome/UCH37, Ub-AMC cleavage fluorescence. inhibition, % (test concentration not listed). 0.33% of 330,000 active. AID 588478;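 active means mean of two replicates above 20%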;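 further: 0% = compound-free wells with enzyme and 100% = wells lacking proteasome; stock transfer was 100 nL into about 20 µL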
Target sequence (Q9Y5K5 whole entry, looked up): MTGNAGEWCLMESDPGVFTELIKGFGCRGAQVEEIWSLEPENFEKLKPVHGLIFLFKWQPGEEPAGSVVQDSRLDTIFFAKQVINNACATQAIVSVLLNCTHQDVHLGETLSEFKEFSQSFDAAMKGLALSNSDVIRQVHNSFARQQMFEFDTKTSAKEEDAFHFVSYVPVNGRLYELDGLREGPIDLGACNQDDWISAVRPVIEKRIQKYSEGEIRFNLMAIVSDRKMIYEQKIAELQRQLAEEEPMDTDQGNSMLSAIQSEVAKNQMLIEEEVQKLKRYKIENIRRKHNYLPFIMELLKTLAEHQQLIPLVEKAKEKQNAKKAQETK
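System: Proteasome-associated human UCH37 deubiquitinase; Input: 0.15 nM proteasome in added enzyme buffer; Also added: Ub-AMC substrate from 1 µM stock; Incubation: 30 min compound-proteasome preincubation then 25 min substrate reaction, room temperature; Detection: fluorescence, ex 355 nm, em 460 nm; Read-out: % inhibition of Ub-AMC cleavage fluorescence; Benchmarks: no-proteasome and no-compound wells.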
E coli growth = blocks Escherichia coli growth; OD600, 23 h; hits give low values; OD600 absorbance (no concentration beside the values); 0.21% of 330,000 active; AID 1053175;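 active means OD600 absorbance below the run mean of sample wells minus 3.6 SD, in any replicate, cut at about 0.56 in these data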;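 further: stock transfer was 300 nL into about 60 µL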
rRNA inh HTS OD600 = second read-out of rRNA inh HTS, no call of its own (marks repeat the call); OD600 change, %; measured here: OD600 growth;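 optical density of the mix in the first replicate; 0 = DMSO median and -100 = no signal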
rRNA inh HTS RFP = second read-out of rRNA inh HTS, no call of its own (marks repeat the call); RFP signal change, %; measured here: RFP humanized mutant strains;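 first replicate; 0 = DMSO median and -100 = no signal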
* = called active by the depositor; i = inactive; nt = not tested or not shown.

SMILES	rRNA inh HTS	rRNA inh HTS OD600	rRNA inh HTS RFP	FGF22 binding	ALR inh	B2AR ag	HNF4A DNA FP	UCH37 DUB inh	E coli growth
COc1ccc(NC(=O)CN2C(=O)CSc3ccc(S(=O)(=O)N4CCCC4)cc32)cc1OC	4	4	5.4	i	nt	7	2.5	5.6	0.7
O=C(O)CCN1C(=O)c2ccc(NC(=O)C(c3ccccc3)c3ccccc3)cc2C1=O	-5	-2	13	nt	0	0	0.6	-415	0.67
Cc1ccc(NC(=O)[C@@H]2CCCN2S(=O)(=O)c2ccc(Cl)cc2)cc1	-31	-26	-3.2	i	-10	-2	1.3	3.7	0.71
CC(=O)Nc1ccc(NS(=O)(=O)C(F)(F)F)cc1	7	12	-0.5	nt	-20	3	1.8	-0.5	0.68
O=C(c1ccccc1NS(=O)(=O)c1ccc(F)cc1)N1CCOCC1	6	10	-3.9	i	-2	5	-2.2	-0.6	0.69
Cc1ccc(NC(=O)CN2C(=O)C3CC=CCC3C2=O)cc1S(=O)(=O)N1CCOCC1 (stereo unspecified)	-3	1	1.0	i	-2	-1	0.6	3.6	0.67
COc1ccc(CCN=C(N)NS(=O)(=O)c2ccc(C)cc2)cc1OC	7	0	-1.4	i	-5	-1	0.5	3.0	0.72
CCOC(=O)CNC(=S)N(Cc1cccs1)C1CCCCC1	0	2	-4.7	i	-1	0	2.9	1.9	0.69
O=C(C1CCCN(S(=O)(=O)c2ccc(F)cc2)C1)N1CCCCCC1 (stereo unspecified)	-1	-14	-3.2	i	-3	4	0.5	-0.2	0.7
CCOc1ncccc1C(=O)NCCc1ccc(Cl)cc1	-6	-1	0.8	i	-7	-3	-2.0	0.1	0.65
N#Cc1c(NC(=O)CSc2nnnn2C2CCCCC2)sc2c1CCCC2	nt	nt	nt	nt	1	-3	3.5	2.2	0.66
COc1ccc(C2=NS(=O)(=O)N(C)C(C(=O)N3CCN(C)CC3)=C2)cc1	-1	17	-1.3	i	-6	-12	2.2	5.4	0.7
COc1ccc(OC)c(-c2csc(NC(=O)CN3C(=O)C4CCCCC4C3=O)n2)c1 (stereo unspecified)	-18	-19	0.1	i	nt	8	-1.7	0.6	0.6
Cc1ccc(Sc2c(C#N)c(-c3ccccc3)nn2C)cc1	nt	nt	nt	nt	-4	-7	2.6	-1.1	0.7
COc1cc(-c2nc3ccccn3c2/N=C/c2ccc(F)cc2)ccc1O	5	5	0.7	i	95*	-25	-0.8	nt	nt
O=C(NC1CCSc2ccccc21)c1cccc(Br)c1 (stereo unspecified)	-9	0	-3.7	i	0	1	2.5	5.8	0.73
COC(C/C=C\[C@H](O)COCc1ccccc1)OC	11	15	-0.3	i	-11	-8	-1.8	6.8	nt
COc1ccc(C(=O)NCc2ccc(N3CCN(C)CC3)cc2)cc1	8	7	-0.3	i	nt	5	-2.5	0.8	0.69
O=C(O)c1cc(-c2ccc(/C=C3/SC(=S)N(Cc4ccccc4)C3=O)o2)ccc1Cl	7	-1	48	i	nt	-19	96	45*	0.71
COc1ccc(N2CCN(C(=O)C(=O)c3c[nH]c4ccccc34)CC2)cc1	0	9	2.2	i	37	1	3.4	4.4	0.69
CC(=O)N(Nc1ccccc1)c1ccccc1	10	11	-2.5	i	0	19	-1.7	1.2	0.66
Cc1nn(CCOc2cccc(Br)c2)c(C)c1[N+](=O)[O-]	5	1	2.3	i	46	3	1.4	4.0	0.69
Cc1ccc(S(=O)(=O)N2CCCCC2)cc1NC(=O)C1CC(=O)N(c2ccc3c(c2)OCCO3)C1 (stereo unspecified)	-8	-4	0.6	i	nt	6	0.9	5.2	0.67
COc1cccc(-c2cc(C(=O)NCc3ccco3)no2)c1	nt	nt	nt	nt	3	5	1.8	1.2	0.72
O=C(CCc1nc2ccccc2c(=O)[nH]1)Nc1ccc(N2CCCCC2)cc1	19	9	5.4	i	20	9	-7.5	nt	nt

UCH37 DUB inh: what is marked active above.
SMILES	rRNA inh HTS	rRNA inh HTS OD600	rRNA inh HTS RFP	FGF22 binding	ALR inh	B2AR ag	HNF4A DNA FP	UCH37 DUB inh	E coli growth
O=C(O)c1cc(-c2ccc(/C=C3/SC(=S)N(Cc4ccccc4)C3=O)o2)ccc1Cl	7	-1	48	i	nt	-19	96	45*	0.71

Going on with the list.
SMILES	rRNA inh HTS	rRNA inh HTS OD600	rRNA inh HTS RFP	FGF22 binding	ALR inh	B2AR ag	HNF4A DNA FP	UCH37 DUB inh	E coli growth
Cc1cc(F)cc(-c2cc(C(=O)NCc3cccc(Cl)c3)[nH]n2)c1	1	4	-0.4	i	nt	nt	0.2	nt	nt
O=C(CSc1nnnn1-c1cccc(F)c1)Nc1nc2ccccc2s1	nt	nt	nt	nt	3	-2	-1.3	2.7	0.72
CCCCCn1c(C)c2c(OCC)cccc(=O)c2c1C	14	7	7.0	i	nt	6	7.7	1.2	0.62
O=C(NNC(=O)c1ccccc1O)c1ccc(Br)cc1	-24*	-11*	-7.3*	i	3	7	0.8	2.0	0.67
c1coc(CNc2nc3ccccc3s2)c1	9	8	-2.0	i	nt	-7	5.6	3.4	0.68
C[C@H](CO)N1C[C@H](C)[C@@H](CN(C)Cc2ccc(C(=O)O)cc2)Oc2c(NC(=O)c3ccncc3)cccc2C1=O	9	-1	-0.9	i	-3	-9	1.8	3.3	nt
CCOC(=O)C1(CC2CCCCO2)CCN(S(=O)(=O)c2ccc(OC)cc2)CC1 (stereo unspecified)	5	-1	1.3	i	-14	-2	-1.0	2.1	0.64
Cc1ccc(CSCC(=O)N/N=C/c2ccc(OCC(=O)Nc3ccc(C)cc3)cc2)cc1	nt	nt	nt	nt	24	2	0.6	nt	nt
COc1ccc2c(c1)nc(CN1CCN(CCO)CC1)n2C	11	12	3.5	i	nt	4	3.4	5.0	0.66
Cn1cc([N+](=O)[O-])c(C(=O)Nc2cc(Oc3ccccc3)cc([N+](=O)[O-])c2)n1	4	3	-3.3	i	-12	36	1.6	2.6	0.75
O=C(Nc1ccc2c(c1)C(=O)N(CC1CCCO1)C2=O)c1cccc(Br)c1 (stereo unspecified)	nt	nt	nt	nt	nt	3	0.9	-164	0.68
CN(Cc1ccccc1)C(=O)COC(=O)/C=C/c1ccco1	13	7	5.3	i	72	2	-6.8	1.2	0.69
COc1cccc(-c2nnc(SCC(=O)OC(C)C)n2Cc2ccco2)c1	nt	nt	nt	nt	-2	7	-0.8	2.4	0.79
CCc1ccc(N2CC(C(=O)N3CCN(S(=O)(=O)c4cccc(F)c4)CC3)CC2=O)cc1 (stereo unspecified)	-4	-15	1.4	i	nt	nt	2.6	nt	nt
Cc1cc(C)cc(NC(=O)Cn2c(=O)oc3cc(S(=O)(=O)N4CCC(C)CC4)ccc32)c1	4	17	15	i	-15	3	4.7	7.6	0.78
O=C(O)c1ccc(NC(=O)C2CC=CCC2C(=O)O)cc1 (stereo unspecified)	nt	nt	nt	nt	nt	4	1.2	3.1	0.73
Cc1ccc(C(=O)NCc2ccccc2CN2CCCC2)cc1S(=O)(=O)N1CCOCC1	nt	nt	nt	i	nt	7	-0.5	4.0	0.69
O=C(O)CN(c1ccccc1F)S(=O)(=O)c1ccccc1	nt	nt	nt	nt	-8	3	1.0	2.9	0.73
CCOn1c(=O)c(=O)n(OCc2ccccc2)c2ccccc21	nt	nt	nt	nt	-6	-7	-2.5	1.4	0.73
COc1ccc(C(=O)c2coc3c2C(=O)C(=O)c2ccccc2-3)cc1	nt	nt	nt	i	-20	2	0.2	11	0.68
CCc1ccc(C2c3[nH]c4ccccc4c3CCN2C(=O)c2cc(C)nn2C)cc1 (stereo unspecified)	nt	nt	nt	nt	2	8	4.5	1.8	0.7
CC(C)CN1CCN(C(=O)CCc2nnc(Cc3c[nH]c4ccccc34)o2)[C@@H](C)C1=O	13	15	1.9	i	-14	-1	1.9	2.6	0.69
CCCCNC(=O)c1onc(CSc2ccccc2C)c1C(=O)O	-32	-48	22	i	17	2	6.4	nt	nt
CCCCCC(=O)Nc1cccc(S(=O)(=O)NC2=NCCC2)c1	9	8	-1.8	i	-1	-1	-2.1	-1.4	0.67
COc1cc(NC(=O)c2ccccc2-c2ccccc2)cc(OC)c1	-16	-32	-8.5	i	1	3	2.4	4.9	0.66

Of the compounds above, 2 have a nitro group on carbon:
SMILES	rRNA inh HTS	rRNA inh HTS OD600	rRNA inh HTS RFP	FGF22 binding	ALR inh	B2AR ag	HNF4A DNA FP	UCH37 DUB inh	E coli growth
Cc1nn(CCOc2cccc(Br)c2)c(C)c1[N+](=O)[O-]	5	1	2.3	i	46	3	1.4	4.0	0.69
Cn1cc([N+](=O)[O-])c(C(=O)Nc2cc(Oc3ccccc3)cc([N+](=O)[O-])c2)n1	4	3	-3.3	i	-12	36	1.6	2.6	0.75

Additional results follow.
SMILES	rRNA inh HTS	rRNA inh HTS OD600	rRNA inh HTS RFP	FGF22 binding	ALR inh	B2AR ag	HNF4A DNA FP	UCH37 DUB inh	E coli growth
COc1ccc(NC(=O)c2cc3c(=O)n(C)c4ccccc4c3s2)cc1OC	nt	nt	nt	nt	-1	20	-1.6	-47	0.71
COc1ccc(C(=O)N2CCN(CCCc3ccccc3)CC2)cc1OC	10	11	-0.2	i	-17	-8	-3.3	3.7	0.67
O=C(c1ccccc1)N1CCN(c2ccc([N+](=O)[O-])c(N3CCOCC3)c2)CC1	-2	-4	-1.2	i	1	6	-0.6	3.7	0.67
COc1ccc(Nc2nnc(SCC(=O)N3CC(=O)Nc4ccccc43)s2)cc1	4	6	-6.0	i	2	-29	-1.4	4.9	0.68
COc1ccc(C(C)(NC(C)=O)c2nc(-c3cccc(C(F)(F)F)c3)cs2)cc1 (stereo unspecified)	0	-17	8.2	i	nt	nt	-2.8	nt	nt
Cc1nnc(SCC(=O)N2CCN(S(=O)(=O)c3ccc(Cl)cc3)CC2)[nH]c1=O	nt	nt	nt	nt	3	-2	0.5	-2.7	0.78
O=C(CSc1nnc(COc2ccc(Cl)cc2)o1)N1CCCC1	-6	6	4.6	i	nt	-6	1.3	0.8	0.64
COc1ccc(-n2c(CN3CCC(C(N)=O)CC3)nc3ccc([N+](=O)[O-])cc3c2=O)c(OC)c1	13	7	-6.3	i	18	-5	-2.0	4.1	0.67
COc1ccc2[nH]cc(CCNC(=O)Nc3ccccc3C)c2c1	1	-2	1.7	i	48	3	-3.5	0.1	0.65
Cn1c(C(=O)N2CCN(c3nc4ccccc4s3)CC2)cc2sccc21	nt	nt	nt	nt	1	-8	1.4	3.9	0.74
CCN(CC)C(=O)c1cccc(-c2csc(C(O)c3cccc(Cl)c3)n2)c1 (stereo unspecified)	-38	-64	-5.2	i	nt	nt	2.3	nt	nt
CCN1C(=O)[C@H]2[C@@H](c3ccc(OC)cc3)N[C@]3(CCCN(Cc4ccc(C(F)(F)F)cc4)C3=O)[C@H]2C1=O	-7	-4	0.3	i	nt	nt	-7.3	nt	nt
Cc1nnc(SCC(=O)Nc2nccs2)n1N	4	6	-3.5	i	-2	-2	2.5	2.0	0.65
COc1ccc(NC(=O)COC(=O)CCNS(=O)(=O)c2ccc(Cl)cc2)cc1	0	-4	3.1	i	-11	4	-1.4	-0.5	0.67
CCOc1ccc(Cn2ccnc2)cc1[N+](=O)[O-]	nt	nt	nt	nt	nt	-9	0.2	5.9	0.68
CCCCN(C(=O)c1ccc(C#N)cc1)c1c(N)n(CCC)c(=O)[nH]c1=O	9	11	-0.6	i	-3	-4	2.8	2.0	0.7
CCn1cc(CNC(=O)c2ccc3nc(Cc4ccccc4F)oc3c2)cn1	7	13	-0.9	i	-2	-5	6.4	2.9	0.69
O=C(Cn1[nH]c(=O)c2ccccc2c1=O)NC1CCN(Cc2ccccc2)CC1	nt	nt	nt	nt	-10	1	1.0	4.0	0.67
CCCCC(=O)OCc1c(-c2cccc(OC)c2)ncc2ccccc12	-14	-18	-17	i	-16	-8	-1.6	3.0	0.7

From PubChem BioAssay

This is a subset; the hit share may differ from the screen's.
